Assay outcomes from PubChem BioAssay.
Ab BasE inh – BasE siderophore biosynthesis inhibition | purified BasE, fluorescence polarization binding displacement | inhibition, % (no concentration beside the values) | hit rate 0.1% among 84,000 | AID 485350;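 active = both replicates above 25% with normal brightness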;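 note: 0% = negative plate control signal and 100% = positive plate control signal; stock transfer was 100 nL into about 30 µL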
KSHV LANA nucl – LANA-nucleosome interaction inhibition. FITC-LANA1-23 / chicken nucleosome fluorescence polarization; hits give low values. z-score (concentration not given with the values). hit rate 0.3% among 51,000. AID 720717;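 active = both repeat wells score below -2 in polarization z-score versus plate sample wells, excluding overly bright wells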;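 note: 100 nL library stock added to about 30 µL; numbers are from one replicate; some results filed as inactive read as strong as hits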
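Assay system: purified chicken nucleosomes with FITC-labelled LANA N-terminal peptide (1-23) / Probe or stimulus: 50 nM FITC-LANA1-23 probe / Compound dosing: pin-transferred compound, 100 nL / Times: compound with peptide–nucleosome mix 10–45 min at room temperature / Technique: fluorescence polarization, 480 nm excitation, 535 nm parallel and perpendicular emission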
Active calls of the source: *; · = not tested or not shown; & = joins results of further samples. A portion of the library; rates above refer to the full screens.

| SMILES | Ab BasE inh | KSHV LANA nucl |
| --- | --- | --- |
| O=C(COC(=O)c1ccc2c(c1)OCO2)NC12CC3CC(CC(C3)C1)C2 | 0.8 | · |
| NC(=O)C1CCCN(C(=O)Nc2cccc(C(F)(F)F)c2)C1 (stereo not given) | 0.5 | -1.5 |
| O=C(CCC(=O)c1ccc(Cl)s1)NC1CCCC1 | -2.9 | · |
| CNC(=O)c1c(NC(=O)CS(=O)(=O)c2ccc(F)cc2)sc(C)c1C | -1.9 | 1.3 |
| CC1CCCCC1NC(=S)NN (stereo not given) | 0.6 | · |
| CC(C)(C)SCCNc1nc(Oc2ccc(F)cc2)nc(Oc2ccc(F)cc2)n1 | 1.0 | · |
| Cc1c(N=C=S)c(=O)n(-c2ccccc2)n1C | 1.1 | · |
| Cn1ccnc1P(=O)(O)c1ccccc1 | -1.6 | · |
| COc1ccc(CCC(=O)OCN2C(=O)c3ccccc3C2=O)cc1 | -0.3 | · |
| O=C(NCCN1CCCC1)c1cc2ccc3cccnc3c2[nH]1 | -19 | · |
| CC1CCCC(NC(=O)NC(=O)COc2ccccc2C(N)=O)C1C (stereo not given) | -2.0 | · |
| COc1ccc(NC(=O)c2ccc(NC(=O)CN(C)C3CCN(C)CC3)cc2)cc1 | -14 | · |
| O=S(=O)(c1ccc(-c2cnco2)cc1)N1CCN(C2c3ccccc3-c3ccccc32)CC1 | -2.1 | 1.2 |
| Nc1ccc(-n2cnnc2)cc1 | -0.4 | -1 |
| Cc1nn(-c2ccccc2)c(C)c1CN(C)C(=O)C1COc2ccccc2O1 (stereo not given) | 13 | · |
| COC(=O)c1cc(COC(=O)/C=C/c2c(C)nn(-c3ccccc3)c2C)oc1C | -3.2 | · |
| Cc1nn2c(nc(N3CCCC3)c3ccccc32)c1C=C1C(=O)N(C)C(=O)N(C)C1=O | -4.4 | · |
| O=c1cc(C(F)(F)F)nc(-c2ccccn2)[nH]1 | · | 0.79 |
| Cc1sc(N)nc1-c1cccs1 | 5.8 | -0.17 |
| COc1ccc(CN2CCN(c3cccc(C(F)(F)F)c3)CC2)cc1C | -0.3 | -0.03 |
| O=C1CCCC2=C1C(c1ccc3c(c1)OCO3)c1c([nH]c(=O)[nH]c1=O)N2 (stereo not given) | 0.8 | 0.34 |
| S=C1NC2(CCS1)Oc1ccccc1C1CC(c3ccccc3)=NN12 (stereo not given) | -8.3 | · |
| Cc1oc2c3c(ccc2c(=O)c1-c1ccc(F)cc1)OCO3 | -0.3 | · |
| CC(/C=C(\C#N)S(=O)(=O)c1ccccc1)c1ccccc1 (stereo not given) | -1.5 | · |
| CCOc1cc(/C=C2\SC(=O)N(Cc3ccc(F)cc3)C2=O)ccc1O | -4.3 | · |
| O=S(=O)(Nc1ccccn1)c1ccc(-n2cccn2)cc1 | -0.8 | 0.088 |
| CCCCn1c(=O)c(C(=O)N/N=C/c2cccnc2)c(O)c2ccccc21 | 1.2 | -0.35 |
| CCOC(=O)N1CCN(C(=O)CC2c3ccccc3Oc3ccccc32)CC1 | 1.2 | -1 |
| Cc1cc(C)cc(NC(=O)COC(=O)c2ccc(S(=O)(=O)N3CCOCC3)cc2)c1 | 3.1 | · |
| O=C(COC(=O)/C=C/c1ccc(F)cc1)Nc1ccc(Cl)cn1 | 2.5 | · |

Full records from above.
`Cn1ccnc1P(=O)(O)c1ccccc1` is listed with Ab BasE inh = -1.6; KSHV LANA nucl = ·
`CCOC(=O)N1CCN(C(=O)CC2c3ccccc3Oc3ccccc32)CC1` is listed with Ab BasE inh = 1.2; KSHV LANA nucl = -1

Back to the main list, starting 4 compounds before the break.
| SMILES | Ab BasE inh | KSHV LANA nucl |
| --- | --- | --- |
| CCCCn1c(=O)c(C(=O)N/N=C/c2cccnc2)c(O)c2ccccc21 | 1.2 | -0.35 |
| CCOC(=O)N1CCN(C(=O)CC2c3ccccc3Oc3ccccc32)CC1 | 1.2 | -1 |
| Cc1cc(C)cc(NC(=O)COC(=O)c2ccc(S(=O)(=O)N3CCOCC3)cc2)c1 | 3.1 | · |
| O=C(COC(=O)/C=C/c1ccc(F)cc1)Nc1ccc(Cl)cn1 | 2.5 | · |
| OCCSc1nc(-c2cccnc2)nc2ccccc12 | -2.9 | · |
| CCC(C)(C)c1nnc(N)s1 | 0.9 | -0.46 |
| CNCC(O)COC1CCCCC1 (stereo not given) | -1.4 | 0.85 |
| CC/C(Cc1ccccc1)=N\NC(=O)c1ccc(N)cc1 | -1.8 | -0.24 |
| CC(=O)Nc1cccc(NC(=O)Cn2nc(-c3ccco3)ccc2=O)c1 | -0.6 | -1.9 |
| O=C(CN1C(=O)CSc2ncccc21)N1CCN(c2ccccc2)CC1 | -0.2 | -0.95 |
| Cc1ccc2c(c1)c1c(n2CC(O)CN2C(=O)CNC2=O)C(=O)CCC1 (stereo not given) | 0.2 | · |
| O=C(O)C12CC3CCC(CC(C3)C1)C2 | -2.2 | 0.83 |
| O=C(Nc1ccc2ccccc2n1)C1CCN(c2nccc(C(F)(F)F)n2)CC1 | 1.6 | -0.21 |
| COc1ccccc1N1CCN(c2ncnc3c2cnn3-c2ccc(C)c(Cl)c2)CC1 | 1.9 | -0.87 |
| CCOC(=O)c1cc(-c2ccccc2)sc1NC(=O)CN1CCCCC1 | · | 1 |
| CS(=O)(=O)N1CCN(c2cccc(C(F)(F)F)c2)CC1 | 3.1 | 0.016 |
| CC(C)CN(CC(C)C)C(=O)CSc1nn2c(=O)c(C(C)(C)C)nnc2s1 | 0.8 | · |
| CC(Sc1nnc(-c2ccccc2Br)o1)C(=O)NC1CC1 (stereo not given) | 0.5 | · |
| Cc1ccc2oc(=O)c(C(=O)CC3CCCC3)c(O)c2c1 | -1.1 | -0.41 |
| COc1cc(/C=N/N)cc(OC)c1OC | 2.5 | · |
| Cc1ccnc(SCc2cc(=O)c(OC(=O)c3ccc4c(c3)OCO4)co2)n1 | -0.5 | 0.015 |
| CS(=O)(=O)c1ccccc1C(=O)Nc1nnc(-c2ccc(Cl)cc2)o1 | 1.5 | -1.2 |
| O=C(CCCSc1nc2ccccc2s1)NCc1ccco1 | 0.9 | · |
| Cc1ccc(C(=O)C(C)OC(=O)C2=COCCO2)cc1C (stereo not given) | 0.3 | · |
| NC(CSC1CCCCO1)C(=O)O (stereo not given) | -2.2 | 0.74 |
| Clc1ccc(C(Cn2ccnc2)OCc2ccsc2Cl)c(Cl)c1 (stereo not given) | · | 0.075&0.021 |
| CCN(Cc1ccccc1)CN1C(=O)C2(OCCCO2)c2ccccc21 | -0.3 | 0.2 |
| Oc1ccc(CN2CCc3ccccc3C2)c2cccnc12 | 2.8 | · |
| O=C(NC1CCCC1)c1ccccc1 | 4.2 | · |
| CC(Oc1ccc(-c2ccccc2)c(F)c1)c1ccnc(N)n1 (stereo not given) | · | -1 |
| CCOc1ccc(N2C(=O)CC(/C=C3/N(C)c4ccccc4C3(C)C)C2=O)cc1 (stereo not given) | -5.0 | 2.4 |
| O=C(CSc1nc2ccccc2[nH]1)N1CCCC1 | 1.1 | -0.41 |
| CC1CCCCN1CCCNC(=O)c1c(O)nc2ccccn2c1=O (stereo not given) | 0.1 | -0.82 |
| c1ccc(CN2CCC(NC3CCCC3)CC2)cc1 | -0.2 | -0.46 |

(next part)
| SMILES | Ab BasE inh | KSHV LANA nucl |
| --- | --- | --- |
| O=C(NC(=S)Nc1ccc(Br)cc1)C1CC1 | 3.4 | · |
| CC(C)(C)c1cc(C(=O)Nc2nccs2)ccn1 | 2.2 | 0.62 |
| NCC1OC(OC2C(N)CC(N)C(OC3OC(CO)C(O)C(N)C3O)C2O)C(O)C(O)C1O (stereo not given) | -0.1 | 0.0055 |
| O=C(O)c1ccccc1-c1ccccc1C(=O)NCCCO | 7.3 | 0.45 |
| Cc1ccc2nc(COC(=O)CN3C(=O)C4CC=CCC4C3=O)cc(=O)n2c1 (stereo not given) | 2.9 | · |
| Cn1c(-c2ccco2)n[nH]c1=S | 0.3 | · |
| Cc1ccc(C(=O)N(c2ccc(SC(F)F)cc2)c2nc3ccccc3s2)o1 | -0.8 | · |
| O=C(O)CCC(=O)N(c1ccccc1)c1ccccc1 | 3.8 | -0.12 |
| COc1cccc2sc(=NC(=O)Cc3cccc4ccccc34)n(C)c12 | 1.8 | · |
| CCC1(C)N=C(c2ccc3c(c2)OCO3)CC(c2ccccc2O)N1 (stereo not given) | -0.3 | 0.95 |
| N=c1n(CCOc2ccccc2)c2ccccc2n1Cc1ccccc1 | -7.5 | · |
| CC(=O)OC[C@H]1O[C@@H](NC(N)=O)[C@H](OC(C)=O)[C@@H](OC(C)=O)[C@@H]1OC(C)=O | 4.5 | · |
| O=C1Nc2cc(C(=O)N3CCN(c4ccc(F)cc4)CC3)ccc2NC1CS(=O)(=O)Cc1ccc(F)cc1 (stereo not given) | -15 | 2.3 |
| CCOC(=O)C1CCCCN1Cc1ccc(CC)cc1 (stereo not given) | -1.7 | -0.93 |
| O=C(COc1ccccc1)OCN1C(=O)c2ccccc2C1=O | 1.6 | -0.42 |
| COC(=O)N/N=C/c1c(C)nn(-c2cccc(Cl)c2)c1Cl | 3.3 | · |
| CC(C)(C)[C@H]1COC(CC2=N[C@@H](C(C)(C)C)CO2)=N1 | 2.4 | · |
| COc1cc(C2/C(=C(\O)c3ccc(F)cc3)C(=O)C(=O)N2Cc2cccnc2)ccc1O (stereo not given) | -0.1 | -0.79 |
| CC[C@H]1CN2CCc3cc(OC)c(OC)cc3[C@@H]2C[C@@H]1CC1NCCc2cc(OC)c(OC)cc21 (stereo not given in full) | -1.4 | -0.22 |
| COC(=O)c1[nH]n(-c2c(C)cccc2Cl)c(=O)c1N=O | 2.8 | · |
| c1ccc(-n2c(SCc3cn4ccsc4n3)nc3ccccc32)cc1 | -2.4 | · |
| O=c1cc(CO)oc(C(=Nc2ccc(Cl)cc2)c2ccncc2)c1O | 2.6 | · |
| Cc1cc(N2CCN(C)CC2)nc2ccc(NC(=S)N3CCC(C)CC3)cc12 | -2.5 | 1.4 |
| Cc1sc(NC(=O)CN2CCOCC2)c(C#N)c1C | · | 0.18 |
| C=C1SC(Nc2cccc(Cl)c2)=NC1(C)C | 2.4 | 0.13 |
| COc1cc2c(cc1OC)C1=C(C#N)CN(c3ccc(C)c(C)c3)CN1CC2 | 0.8 | · |
| Cc1onc(-c2ccccc2Cl)c1C(=O)N(CC(C)C)CC(C)C | 1.7 | -0.12 |
| CCCN(C(=O)Cc1noc2ccc(C)cc12)c1ccc(Cl)c(Cl)c1 | -0.7 | 0.25 |
| COc1cccc(N2CCN(C(=O)Cc3n[nH]c(=O)c4ccccc34)CC2)c1 | 0.9 | · |
| Cc1csc2sc(C(=O)Oc3ccc(Cl)cc3)c(C)c12 | 0.0 | · |

The listing continues.
| SMILES | Ab BasE inh | KSHV LANA nucl |
| --- | --- | --- |
| CNC(=O)c1cc2c(n(-c3ccccc3)c1=O)CCCC2=O | -0.9 | 0.002 |
| Cn1nc(C(F)(F)F)c2cc(C(=O)O)sc21 | 2.9 | -0.81 |
| Cc1ccc(Cn2c(C(=O)NCc3ccccc3)cc3oc(C)cc32)cc1 | 1.4 | 0.13 |
| CC(C)=CCCC(C)CN1CCN(Cc2ccccc2)CC1 (stereo not given) | 0.7 | -0.24 |
| Cc1occc1-c1nnc(SCC(=O)N(CC(C)C)c2c(N)n(CC(C)C)c(=O)[nH]c2=O)n1C | -0.9 | · |
| O=c1[nH]c(CN2CCCC2c2ccc3c(c2)OCCO3)nc2cc(Cl)ccc12 (stereo not given) | 0.5 | · |
| COc1ccccc1NC(=S)N(Cc1ccccc1)Cc1ccc(C)o1 | -0.1 | -0.16 |
| CC(C)CCN(C(C)c1cccs1)S(=O)(=O)c1csc(C(N)=O)c1 (stereo not given) | 1.6 | · |
| COC(=O)c1ccc(OC(=O)c2cc(OC)c(OC)c(OC)c2)c(C(=O)OC)c1 | 1.4 | · |
| O=C(OCC(=O)N1CCCC1=O)c1ccc(S(=O)(=O)NCc2ccco2)cc1 | 1.2 | · |
| CCOc1cc(-n2cnnn2)c(OCC)cc1NC(=O)CN1Cc2ccccc2C1=O | 2.1 | -1.5 |
| CC(C)n1cc(-c2nc(C(=O)NN)cs2)c(=O)n(Cc2ccccc2)c1=O | -1.0 | · |
| COC(=O)c1c(NC(=O)c2c(-c3ccccc3Cl)noc2C)sc2c1CCCC2 | 0.0 | · |
| CN1CC=C(Cc2n[nH]c(=O)c3ccccc23)CC1 | 1.5 | 0.27 |
| CCn1cc(C(=O)NCc2ccc(C)cc2)c(=O)c2cc(S(=O)(=O)N(C)C)ccc21 | -0.5 | -0.19 |
| Cn1c(=O)[nH]c(=O)c2[nH]c(SCC(=O)O)nc21 | 0.1 | · |
| CNC(=O)COc1ccc(NC(=O)CCn2nc(-c3ccc(Cl)cc3)c3ccccc3c2=O)cc1 | 1.6 | · |
| Cc1ccc(-c2nn(-c3ccccc3)cc2/C=C2/CN(C)C/C(=C/c3cn(-c4ccccc4)nc3-c3ccc(C)o3)C2=O)o1 | 0.0 | · |
| CCn1c(SCC(=O)N2CCNC2=O)nnc1-c1cccs1 | 2.1 | · |
| O=C(NCC1CCCCC1)c1ccc(-n2cnnn2)cc1 | 3.5 | · |
| CN(C)C(=S)SCC(=O)Nc1ccc(F)cc1 | 0.9 | · |
| CCCCSc1nnc2c(=O)[nH]c(=O)[nH]c2n1 | 0.6 | 0.89 |
| Nc1ccc(O)c(-c2nc3ccccc3o2)c1 | -2.2 | -1.4 |
| Cc1cccc(NC(=O)[C@@H]2CCCN2C(=O)OC(C)(C)C)c1 | 0.5 | · |
